# Screens (PubChem)
# TRPV1 PAM: enhances activation of the human vanilloid receptor TRPV1; Q8NER1; TRPV1-expressing cells, Fluo-8 calcium influx, capsaicin EC20 potentiation; host cell line not named in the record; control for the full effect not named in the record; potentiation, % at 8.33 µM; 320,000 tested, 0.02% active; active means potentiation above 80%; inconclusive means 30% to 80%; inactive means below 30%; note: 0% is about no effect
#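 Fluo-8 calcium influx in TRPV1-expressing cells, kinetic read (ex 480/em 520 nm). Compound added and read 3 min for agonist activity, followed by capsaicin at EC20 final and 2 min further read for enhancement.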
# Sfp inh: Sfp phosphopantetheinyl transferase inhibition. Q9F4F7. Potency, µM, for inactives: max response, negative = inhibition, most hits filed as inhibitors. AID 1490. Biochemical Sfp PPTase activity, qHTS. 310,000 tested, 3.5% active; active = well fitted inhibition curve with a large enough effect; inconclusive = small, poorly fitted or top-dose-only effect, or another doubt; inactive = no such curve, though single readings can be large or run the other way;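 note: the enzyme is Sfp with the accession as filed and its product quenches rhodamine fluorescence; potency is the fitted concentration of half-maximal effect; 0% = enzyme reaction without inhibitor and -100% = no enzyme wells; top concentration of the series not given in the record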
#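 Compounds were incubated with enzyme (final 15 nM) for 15 min at room temperature before substrate addition started the reaction. Fluorescence at 525 nm excitation, 598 nm emission was recorded immediately and after 30 minutes.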
# TRPML1 blocker: blocks the human TRPML1 channel. Q9GZU1. 390,000 tested, 0.02% active. TRPML1-inducible cells, Ca2+ dye fluorescence, FDSS; hits give low values; inhibition of EC80 agonist-evoked calcium signal. activity change, negative = inhibition, % (no concentration beside the values); in the data active means activity change below about -50%; inconclusive means about -30% to -50%; inactive means above about -30%;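 note: stimulus is agonist 54-4 at its EC80 concentration; % is set by controls: 0 for no effect and ±100 for the full control effect; compound concentration not given in the record; the text of the record puts the active cut at -80%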
# Target sequence (Q9GZU1 whole entry, looked up): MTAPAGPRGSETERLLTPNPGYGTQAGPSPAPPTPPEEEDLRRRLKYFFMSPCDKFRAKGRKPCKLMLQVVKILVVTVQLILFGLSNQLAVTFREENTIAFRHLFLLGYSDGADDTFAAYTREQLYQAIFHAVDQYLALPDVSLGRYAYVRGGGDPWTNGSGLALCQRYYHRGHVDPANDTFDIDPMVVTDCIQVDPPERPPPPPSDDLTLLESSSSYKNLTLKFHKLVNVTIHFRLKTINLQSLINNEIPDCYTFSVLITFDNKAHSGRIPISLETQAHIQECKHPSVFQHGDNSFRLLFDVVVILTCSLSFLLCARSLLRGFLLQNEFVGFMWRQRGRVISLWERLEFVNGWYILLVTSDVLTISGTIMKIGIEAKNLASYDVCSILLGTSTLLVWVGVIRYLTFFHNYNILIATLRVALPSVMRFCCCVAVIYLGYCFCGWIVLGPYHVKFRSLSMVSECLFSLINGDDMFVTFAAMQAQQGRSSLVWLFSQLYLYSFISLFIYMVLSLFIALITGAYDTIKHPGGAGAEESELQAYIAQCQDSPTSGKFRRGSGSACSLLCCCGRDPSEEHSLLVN
#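 TRPML1-DL cells, Tet-induced overnight (~16 h, 37 °C) at 1,500 cells/well, were loaded with Ca8 no-wash dye plus quencher for 45-90 min at room temperature. Compounds were pinned during FDSS kinetic reading; agonist 54-4 at EC80 (4 uM final) then added.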
# Menin MLL FP FL: inhibitors of human menin-MLL interaction, wild-type MLL peptide. Fluorescence polarization, fluorescein-MLL peptide displacement from menin. FP activity change, % at 61.4 µM. 290,000 tested, under 10 active. AID 1766; inconclusive = falling polarisation curve, or a change in total fluorescence; inactive = total fluorescence flat and polarisation flat or rising; no compound was filed as active; the % refers to the polarisation; negative = inhibition;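 note: % of control where 0% means no effect; inhibitors lower the polarisation; unlabelled MLL peptide was the positive control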
# TRPML1 ag: human mucolipin-1 channel agonism; Q9GZU1; TRPML1-expressing cells, Ca2+ dye fluorescence, FDSS; host cell line not named in the record; reference of the full effect not given here; activation, % (test concentration not listed); 410,000 tested, 0.12% active; AID 624414; in the data active = activation above about 50%; inconclusive = about 30% to 50%; inactive = below about 30%; note: 0% is about no effect; the text of the record puts the active cut at 80%
#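 Tet-induced TRPML1-DL cells, 1,500 per well, cultured overnight, were loaded with a no-wash Ca2+ dye for 45–90 min. Calcium fluorescence was recorded on the FDSS for 110 s after compound addition, before the EC80 agonist (4 uM 54-4) was added.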
# PINK1 modulator: PINK1 expression modulation; AID 624263; PINK1 immunofluorescence, high-content cytometry, 24 h; 410,000 tested, 0.2% active; Potency, µM (top dose mostly 76.6 µM), inactives show at the highest dose activation (PINK1 increase), hits mostly activators; active = well fitted activation curve with a large enough effect; inconclusive = small, poorly fitted or top-dose-only effect; inactive = flat fitted curve, though single readings scatter; cell line not stated here;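 note: potency is the fitted concentration of half-maximal effect; % of control where 0% means no effect; nearly all actives have a fitted effect of over 65% in size; a mitochondrial uncoupler was the plate control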
#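 Stable cell line, 250 cells/well, 12 h attachment; compounds pinned at 5 concentrations, 24 h; CCCP control. Fixed with nuclear dye, primary antibodies 12 h at 10 degrees C, secondary plus cell stain; laser-scanning cytometer read.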
# ClpP mod: qHTS Assay for Activators of ClpP. ATP-dependent Clp protease proteolytic subunit (Bacillus subtilis (strain 168)), P80244. purified B. subtilis ClpP, FRET peptide cleavage, 20 min. Potency, µM (doses to about 57.5 µM), for the others: at the top dose activity change, negative = active. 340,000 tested, 1.9% active. AID 651965, 2013; active = well fitted falling curve with a large enough effect; inconclusive = small, poorly fitted or top-dose-only effect; inactive = no such curve, though single readings can be large or run the other way; note: potency is the fitted concentration of half-maximal effect; the source files actives as falling curves though it sought activators and does not explain the sign; nearly all actives have a fitted effect of over 65% in size; many hits overshoot -100%
# Target sequence (P80244 whole entry, looked up): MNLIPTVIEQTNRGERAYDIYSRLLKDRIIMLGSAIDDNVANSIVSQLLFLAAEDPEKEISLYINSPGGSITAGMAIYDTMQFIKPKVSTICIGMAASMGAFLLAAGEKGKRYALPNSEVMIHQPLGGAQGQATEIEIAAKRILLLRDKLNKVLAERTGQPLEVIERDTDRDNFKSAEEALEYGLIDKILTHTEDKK
#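 FRET quenching reversal measured ClpP activation: 10 microg/mL B. subtilis ClpP at pH 8 with the FRET-FV decapeptide, read at 430 nm after 320 nm excitation. The 20-min minus 0-min signal was scaled between DMSO/no-enzyme wells and ADEP (5.8 microM final).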
# An asterisk follows results filed as active; ? = inconclusive; · = no result given; & = joins results of further samples; [ ] = remark or other dose.
canonical_smiles,ClpP mod,TRPV1 PAM,Sfp inh,TRPML1 blocker,Menin MLL FP FL,PINK1 modulator,TRPML1 ag
CC1CCc2c(sc(NC(=O)c3c([N+](=O)[O-])cnn3C)c2C(N)=O)C1 (centres undefined),-0.6%,-1,7%,6,·,6.0%,0.6
O=C(Nc1nc2nccc(-c3ccccc3)n2n1)c1ccccc1,·,4,6%,-4,2.2,0.5%,0.0
O=C1C(Cc2ccccc2)S/C(=N/N=C/c2ccco2)N1c1ccccc1 (centres undefined),0.5%,4,11%,0,6.2,16%,0.8
Cc1ccc(S(=O)(=O)NCCc2nnc3ccc(SCc4ccccc4C)nn23)cc1,-4.0%,·,·,-20,·,1.0%,0.0
COc1cc(/C=C2\C(=N)N3N=C(C(C)C)SC3=NC2=O)ccc1OCCOc1ccc(NC(C)=O)cc1,·,?,1%,-12,3.4,2.4%,0.5
COc1cc2c(cc1OC(C)=O)C(=O)CCCC2,1.0%,·,·,·,·,-0.4%,-0.6
COc1ccc(C2=C/C(=C\c3ccc(OC(C)=O)cc3)C(=O)O2)cc1,·,8,-5%,1,7.4,-1.2%,1.0
CC(=O)c1nn(-c2cccc(Br)c2)cc1C(=O)c1ccc(Cl)cc1,·,-1,7%,79,3.8,0.4%,0.4
O=C(O)c1cccnc1SCC(=O)N1CCCc2ccccc21,-1.6%,14,-18%,·,?,-0.3%,·
Cc1ccc(OCCCN2CCCC2)c(C)c1,1.0%,-7,?,10,6.0,-0.8%,-0.4
CC(C)CNC(=O)C1Nc2ccc(C(F)(F)F)cc2C2C=CCC12 (centres undefined),1.9%,·,·,8,·,-0.5%,0.2
COC(=O)N1CCN(S(=O)(=O)c2ccc(F)cc2)CC1,2.2%,-6,6%,-1,0.9,6.1%[38.3 µM],3.0
CCOC(=O)c1c(C(=O)OCC)c(C)n(CCc2ccccc2)c1C,0.6%,-14,-4%,5,0.2,-1.1%,0.7
CN(CC(=O)NCCc1ccccc1)S(=O)(=O)c1cccc2nsnc12,-10%,29,-6%,4,-0.9,1.3%,0.0
CN1N=C(C(=O)Nc2ccc3c(c2)CCC3)CCC1=O,·,-26,13%,3,-1.1,1.6%,0.5
CC1CN(C2=NC(=O)/C(=C3/C(=O)N(Cc4ccc(F)cc4)c4ccccc43)S2)CC(C)O1 (centres undefined),0.6%,4,40µM*,33,1.8,1.4%,0.8
O=C(CSc1nnc2scc(-c3ccc(Cl)cc3)n12)Nc1ccccc1F,1.1%,·,·,26,·,0.0%,2.2
CCCn1ncc2c(Nc3ccc(C)c(C)c3)ncnc21,·,-12,10%,12,2.8,-0.7%,1.0
c1ccc(-c2csc(Nc3cccnc3)n2)nc1,-2.3%,4,?,-4,2.9,?,0.5
CC1CCN(C(=O)c2[nH]cnc2C(=O)Nc2ccc(Cl)cc2)CC1,2.3%,4,·,-2,·,5.9%,0.2
COc1cccc(N=C2SC(CC(=O)Nc3ccccc3)C(=O)N2Cc2ccccn2)c1 (centres undefined),·,-5,?,5,2.8,2.4%,2.3
CCC1=C(OC(=O)N(CC)CC)N2C(=O)OC(=NCc3ccccc3)[C@]2(C)[C@H]2C1=CC[C@H]1C(=O)N(c3ccccc3)C(=O)[C@H]12,1.8%,-27,14%&6%,-6,0.8&-1.3,-0.1%,0.2
Cc1ccccc1-n1nc(C)c2cc(C(=O)NCc3cccnc3)sc21,28µM*,-27,-11%,-15,1.2,3.9%[38.3 µM],-0.1
COc1cc(/C=C(\C#N)C(=O)NC2CCCCC2)ccc1OCc1ccc(C(=O)O)cc1,·,5,?,-1,9.9,-0.6%,0.0
O=c1[nH]c(CSc2nc3ccccc3o2)nc2c1cnn2-c1ccccc1,-2.9%,16,-16%,8,8.4,22%,0.8
COc1ccc(NC(=O)CN(C)Cc2c(F)cccc2Cl)cc1S(=O)(=O)N1CCCCC1,·,6,0%,20,-0.6,-0.4%,0.9
CC(C)(O)C1CC[C@@](C)([C@@H]2CC[C@]3(C)[C@H]2[C@H](O)CC2[C@@]4(C)CCC(O)C(C)(C)C4C(OC4OC(CO)C(O)C(O)C4O[C@@H]4OCC(O)C(O)C4O)C[C@]23C)O1 (some centres undefined),0.4%,·,·,-3,·,-1.3%,-0.6
CNc1cc(C)c(C#N)c2nc3ccccc3n12,-6.5%,1,6%,9,4.7,2.0%,0.1
Cc1ccccc1CC1(CO)CCCN(C(=O)CCCN2CCCCC2=O)C1 (centres undefined),·,-1,4%,0,0.3,0.8%,-0.1
CC(C)n1c(/C=C/c2ccccc2)nc2ccccc21,-1.8%,-4,0%,46,0.9,0.7%,0.2
Cc1ccc(NC2=CC(=O)CC(C)(C)C2)cc1F,1.6%,-15,9%,15,-1.9,-2.9%,2.9
COc1ccc(NC(=O)c2ccc(NC(=O)C3CC3)cc2)cc1,-2.8%,-11,-3%,9,-0.1,6.2%,-0.5
O=S(=O)(c1ccc2ncsc2c1)N1CCN(c2nc(-c3cccs3)nc3ccccc23)CC1,?,·,·,·,·,2.9%,0.0
CC[C@@H](C)[C@H](NC(=O)C1CCN(C(=O)[C@@H](NS(=O)(=O)c2ccc(C)cc2)C(C)C)CC1)C(=O)O,-3.1%,29,-2%,15,3.9,0.5%,-0.3
C=CCOc1ccc(C2C(C#N)=C(N)N(Nc3ccccc3)C3=C2C(=O)CCC3)cc1OC (centres undefined),?,-7,12%,3,4.5,7.8%,-0.2
COc1cccc(CN(C)CC(=O)N2CCN(S(=O)(=O)c3ccccc3)CC2)c1,0.7%,·,·,8,·,-0.9%,-0.6
O=C1CCN(Cc2ccccc2)S(=O)(=O)c2ccc(F)cc21,2.1%&0.3%,8,·,18,·,-0.1%,-0.7&-0.7
CSc1cccc(NC(=O)CCCOc2ccccc2)c1,2.6%,-19,11%,4,4.3,0.7%,-0.7
CN(C)Cc1ccccc1-c1ccc2ncnc(NC3CCNCC3)c2c1,·,·,7%,·,-8.2,0.0%,·
O=C(CCl)N(c1ccccc1)C1CCS(=O)(=O)C1 (centres undefined),3.6%,9,13%,-8,3.2,-1.7%,0.1
Cc1ccc(N(Cc2ccc(C(=O)NC3CCCCC3)cc2)S(C)(=O)=O)cc1C,1.2%,2,9%,11,-1.8,0.4%[38.3 µM],1.3
COc1ccccc1NS(=O)(=O)c1cc(NC(=O)c2ccc(=O)[nH]c2)ccc1N1CCOCC1,-1.9%,0,0%,43,4.5,-0.4%,3.2
CCOC(=O)C(c1ccccc1)C(Nc1ccc(F)cc1)c1ccccn1 (centres undefined),0.5%,-3,21%,3,0.0,1.4%,0.1
CN1C(=O)c2ccc(N3CCCC3)cc2C1=O,0.3%,12,1%,2,?,1.1%[38.3 µM],5.3
Cc1ccc(S(=O)(=O)NC(=S)NC2CCCCC2)cc1,·,5,-18%,-10,-1.5,-0.6%,-0.2
CCN(CC)S(=O)(=O)c1ccc(OC)c(NS(=O)(=O)c2ccc(F)cc2)c1,0.9%,-6,11%,3,1.7,-0.8%,-0.9
O=C(COC(=O)c1cc(S(=O)(=O)N2CCCCC2)ccc1Cl)NC1CCS(=O)(=O)C1 (centres undefined),0.7%,·,·,7,·,2.0%,0.3
Cn1c(=O)c2cc(S(=O)(=O)NCCC(=O)NC3CCCCCCC3)ccc2n(C)c1=O,-15%,10,-1%,-7,-0.3,-5.0%[38.3 µM],0.8
Cn1c(=O)c(-c2cccc(Cl)c2)nc2cncnc21,·,·,-7%,·,0.1,-0.4%,·
CSCCC(NC(=O)c1ccccc1Br)C(=O)N1CCN(C(C)=O)CC1 (centres undefined),-1.4%,5,·,-6,·,1.2%,-0.1
CCC1(c2ccccc2)CN(C)C1=O (centres undefined),-2.3%,·,·,-5,·,-0.7%,-0.2
COc1ccc(Br)c(OC)c1C(=O)NC(=O)Nc1nc(C)cc(C)n1,·,·,18%,15,4.8,0.8%,1.3
CCN(C(=O)c1ccco1)c1nnc(-c2cccnc2)s1,·,1,2%,-11,1.6,0.2%,-0.6
CCOc1ccc(NC(=O)CSc2nc3c(oc4ccccc43)c(=O)n2-c2cc(C)cc(C)c2)cc1,-2.5%,·,·,13,·,0.4%,0.0
CCOc1ccc(C(=O)NCC(c2ccco2)S(=O)(=O)c2cccs2)cc1 (centres undefined),-2.3%,·,·,-11,·,1.6%,0.4
CCC1(C)CC(CCNS(=O)(=O)c2ccc(C)cc2)(c2ccc(C)cc2)CCO1 (centres undefined),0.0%,-12,8%,71,-1.5,2.3%,3.7
COc1ccc(CNC(=O)c2ccc(NC(=O)N3CCCCc4ccccc43)cc2)cc1,-1.1%,·,·,-15,·,-0.1%,2.1
O=C(Cn1c(=O)n(-c2ccccc2)c(=O)c2sccc21)N1CCCC1,-3.3%,-10,20%,17,1.1,-2.0%[38.3 µM],2.8
COc1ccc([N+](=O)[O-])cc1NC(=O)C(C)OC(=O)/C=C/c1ccco1 (centres undefined),2.0%,0,-16%,-8,3.8,2.5%,1.9
Cn1c(=O)oc2cc(S(=O)(=O)NCCC(=O)N3CCN(c4ccccc4F)CC3)ccc21,0.2%,-9,12%,5,2.6,3.1%,-0.4

# Next section
canonical_smiles,ClpP mod,TRPV1 PAM,Sfp inh,TRPML1 blocker,Menin MLL FP FL,PINK1 modulator,TRPML1 ag
C=CCc1cc(OC)ccc1OCCOCCN1CCc2ccccc2C1,·,2,35µM*,23,0.4,15%,2.0
CCOC(CCNC(=O)c1cc2c(=O)[nH]c3ccccc3c2s1)OCC,3.7%,0,17%,-1,3.6,2.3%,-0.8
COc1ccc(Cl)cc1NC(=O)CN(C)C(=O)c1cn2ccccc2n1,-9.2%,-8,·,8,·,11%,-0.4
O=C(c1ccc(NS(=O)(=O)c2cccs2)cc1)N1CCOCC1,-0.4%,1,8%,24,·,-0.9%,0.0
CC(C)(C)c1cc2nc(NCc3cccc(Cl)c3)ccn2n1,-27%,·,·,·,·,7.4%,-0.4
N#Cc1ccc(-c2ccc(OCC(O)Cn3nnc4ccccc43)cc2)cc1 (centres undefined),?,-6,-9%,-1,-1.0,0.2%,-0.5
